BJeLR viability – BJeLR cell viability loss. BJeLR (HRASV12) viability, CellTiter-Glo ATP luminescence, 48 h; reference of the scale not given here. inhibition, % (no concentration beside the values). 0.17% of 300,000 active. AID 1554;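 active = replicate mean above 50%; inconclusive = above 50% but judged a plate artefact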;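 note: 50 nL library stock added to about 25 µL; numbers are from one replicate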
Autofluor counter – compound fluorescence in toxin protease inhibitor counterscreen. 3.1% of 360,000 active. compound autofluorescence counterscreen, microsphere flow cytometry; active compounds read high. AID 624483. fluorescence intensity (test concentration not listed);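 active = at least 3 SD above the mean of all compounds, about 16000 in these data; inconclusive = too few beads counted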;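 note: 100 nL of 1 mM stock went into each well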
PrP UTR inh – inhibition of PrP 5' UTR reporter expression. cell-based PrP 5' UTR mRNA reporter, plate reader. inhibition, % (test concentration not listed). 0.35% of 340,000 active. AID 488862;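 active = every replicate at 50% or more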;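 note: 0 = median of the neutral control wells; tested in H4 reporter cells; numbers are from one replicate; inactives centre near -14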
ugtP null kill – growth inhibition of S. aureus ugtP deletion strain; 0.54% of 330,000 active; growth inhibition, % (no concentration beside the values); S. aureus RN4220 ugtP deletion, OD600 growth, 16 h; some inactives read as strong as hits;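 active = z-score under -3 and OD600 up to 0.15 on both plates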;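 note: plate controls were untreated wells for no effect and antibiotic for full effect; wells of about 80 µL received 100 nL stock; the first replicate is given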
RN4220 kill – kills Staphylococcus aureus RN4220 | S. aureus RN4220 growth, OD600, 16 h | inhibition, % (test concentration not listed) | 0.33% of 330,000 active | AID 1259311;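 active = z-score of -3 or lower and OD600 up to 0.18 on both plates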;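 note: plate controls were untreated cells for no effect and reference antibiotic for full effect; stock transfer was 100 nL into about 80 µL; one replicate is shown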
Mtb hypoxia inh – Mtb hypoxia fluorescent reporter inhibition. fluorescence inhibition, % (concentration not given with the values). AID 1159583. M. tuberculosis hypoxia-regulated fluorescent reporter, fluorescence. 0.1% of 300,000 active;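 active = 35 to 45% if threefold the growth effect, above 45% if 1.5-fold the growth effect; inactive = the rest, general growth blockers included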;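 note: wells of about 50 µL received 100 nL stock; 0% = vehicle wells and 100% = reference inhibitor wells; whole bacteria with a GFP reporter of the hypoxia response; strong numbers were not always called active; many hits fall short of the cut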
Mtb hypoxia inh growth – recorded beside Mtb hypoxia inh, whose call it bears; growth inhibition, %; measured here: M. tuberculosis growth (absorbance);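 0% = vehicle and 100% = reference antibiotic; read after six days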
* = called active by the depositor; u = inconclusive; x = no result given.

Below each SMILES: BJeLR viability, Autofluor counter, PrP UTR inh, ugtP null kill, RN4220 kill, Mtb hypoxia inh, Mtb hypoxia inh growth
1	O=C(O)c1ccc(N/N=C/c2cccc3nccnc23)cc1
    -11, 4132, 13, x, x, x, x
2	COCCn1c(C)cc(C(=O)COC(=O)c2ccc(N3CCCC3=O)cc2)c1C
    -4, 8536, -6, -1, 3.8, 5, 7
3	CSc1ccc(/C=N/NC(=O)C[n+]2ccccc2)cc1
    2, 2932, -28, x, x, x, x
4	COc1cccc2c1OC(=NO)C(C(=O)Nc1cccc(Br)c1)C2 (stereo unspecified)
    x, x, x, 6, 2.4, -2, -7
5	COc1ccccc1-c1cc(C(=O)Nc2cc(C)nn2-c2ccccc2)no1
    -7, 20928*, -24, -16, 0.2, 5, 3
6	Cc1cccc(C)c1NC(=O)COn1nnc2ccc(C(F)(F)F)cc21
    -3, 2298, -5, 3, 5.0, 10, 6
7	O=S(=O)(c1cc(Cl)sc1Cl)N1CCCC1
    -9, 6212, -7, -5, 7.7, 9, 4
8	Cc1ccccc1CCNC(=O)C1CC(O)CN1C(=O)Nc1ccccc1 (stereo unspecified)
    -1, 3940, -21, x, x, x, x
9	CCOc1ccc(-c2c(=O)n(OCc3nc4ccccc4[nH]3)c3ccccc3[n+]2[O-])cc1
    2, 4265, -33, 0, 6.6, -3, -5
10	Cc1nc2ccccc2nc(C)c1=NOCc1cccc(Cl)c1
    8, 6032, -6, 14, 13, 6, 1
11	CCOC(=O)/C=c1\s/c(=C\c2c(OCC)ccc3ccccc23)c(=O)n1CC(=O)NCC1CCCO1 (stereo unspecified)
    0, 2762, -18, x, x, x, x
12	COc1ccc(CN2CCn3ncc(C(=O)Nc4ccccc4)c3C2=O)cc1
    6, 2693, -43, -3, -1.7, x, x
13	CCc1ccc(N2CC(C(=O)Nc3nc4ccc(S(C)(=O)=O)cc4s3)CC2=O)cc1 (stereo unspecified)
    -4, 3862, -19, 1, 2.8, 2, -3
14	CCN1CCCC1CNS(=O)(=O)c1ccc(Br)cc1 (stereo unspecified)
    -2, 6069, -8, 0, 2.2, 8, 7
15	COc1ccc(OCCN2C(=O)NC3(CCc4ccccc4C3)C2=O)cc1 (stereo unspecified)
    3, 2187, -22, 11, -2.4, -1, 6
16	COCCNC(=S)N/N=C(\C)c1ccccc1O
    -5, 7792, -13, x, x, x, x
17	COc1ccc(CN(C)C(=O)CCC(=O)N2CCN(S(=O)(=O)c3ccc(Cl)cc3)CC2)c(OC)c1
    x, 3301, -8, 3, -2.9, 13, 9
18	CCN(CC)CCOC(=O)c1cccc(Br)c1
    -5, 3067, -15, 8, 3.8, x, x
19	O=C(Cn1ccc(C(F)(F)F)n1)N=Nc1c(O)[nH]c2ccccc12
    -2, 4604, -26, 4, 12, 6, 5
20	O=C(N/N=C/c1ccc([N+](=O)[O-])cc1)c1cc(C2CC2)[nH]n1
    0, 6131, -27, x, x, x, x

Continued, starting with the last 3 of the part before.
Below each SMILES: BJeLR viability, Autofluor counter, PrP UTR inh, ugtP null kill, RN4220 kill, Mtb hypoxia inh, Mtb hypoxia inh growth
18	CCN(CC)CCOC(=O)c1cccc(Br)c1
    -5, 3067, -15, 8, 3.8, x, x
19	O=C(Cn1ccc(C(F)(F)F)n1)N=Nc1c(O)[nH]c2ccccc12
    -2, 4604, -26, 4, 12, 6, 5
20	O=C(N/N=C/c1ccc([N+](=O)[O-])cc1)c1cc(C2CC2)[nH]n1
    0, 6131, -27, x, x, x, x
21	CCOC(=O)c1c(C)c(C(=O)N2CCN(c3cccc(Cl)c3)CC2)c(C)n1C
    -9, 16033, -9, 5, 3.3, 4, 3
22	Cn1cc(C=O)c2cc(S(=O)(=O)N3CCOCC3)ccc21
    1, 2435, -20, -2, 3.4, 5, 1
23	O=C(Nc1cccc(S(=O)(=O)N2CCCCC2)c1)c1cccs1
    -10, 5804, -17, 5, 2.0, 10, 1
24	O=C(COc1ccccc1)NN1C(=O)CSC1=S
    -1, 2134, -21, 5, 6.5, 0, 8
25	Cc1ccc(S(=O)(=O)N(C)C[C@@H]2Oc3ccc(NS(C)(=O)=O)cc3CC(=O)N([C@H](C)CO)C[C@@H]2C)cc1
    x, 3006, -29, 2, -9.3, 7, 6
26	Nn1c(SCC(=O)Nc2ccc3c(c2)OCCO3)nnc1-c1cccnc1
    -2, 5615, -15, -1, 0.4, 6, 15
27	O=C(NC1CC1)c1sc2cc(F)ccc2c1Cl
    x, 3472, -20, -10, 7.3, -2, 8
28	O=C(CC12CC3CC(CC(C3)C1)C2)NCC(=O)N1CCCC1
    -5, 5010, -5, 6, 0.1, x, x
29	O=C(NCc1ccco1)c1cc(-c2ccccc2)nn1CC1CC(c2cccc([N+](=O)[O-])c2)=NO1 (stereo unspecified)
    x, 3635, -6, 16, 6.6, 15, 6
30	COc1ccccc1/C=C/C(=O)NCC(=O)NN=C(C)c1ccco1
    x, x, x, 8, 3.9, 9, 4
31	CCOC(=O)c1sc2nc(N3CCOCC3)c3c(c2c1N)CC(C)(C)N(C)C3
    5, 4862, -23, 1, 4.0, 16, 5
32	CC(=O)N1CCN(C(=S)Nc2ccc(SC(F)F)cc2)CC1
    -5, 4298, -1, 3, 2.3, 5, -6
33	O=C(Cn1c(=O)n(-c2cccc(C(F)(F)F)c2)c(=O)c2sccc21)NCC1CCCO1 (stereo unspecified)
    -3, 3417, 8, 13, 2.8, 2, 7
34	NS(=O)(=O)c1ccc(Cc2ncc(C(F)(F)F)cc2Cl)s1
    -3, 4956, -3, 17, 3.4, 3, 0
35	Oc1c(C=NNc2cccc3cccnc23)ccc2ccccc12
    x, x, x, 58, -1.0, -8, 11
36	COc1ccccc1CNC(=O)[C@@H]1CCCN1C(=O)C1CCN(S(=O)(=O)c2ccc(C)cc2)CC1
    -1, 9144, -12, 4, 3.3, -9, 3
37	O=C1CCCC2Cc3[nH]c4c(Cl)ccc(Cl)c4c3C3CCN1C23 (stereo unspecified)
    x, x, x, 6, 5.1, 4, 1
38	O=C(Cn1[nH]c(=O)c2ccccc2c1=O)NCC1COc2ccccc2O1 (stereo unspecified)
    x, 5363, x, -1, 1.5, 5, 6
39	c1ccc(COc2ccc(OCCOCCn3cncn3)cc2)cc1
    8, 4561, -53, 3, 5.9, 10, 5
40	COc1ccc(N2CCN(C(C)C(=O)Nc3nnc(C)s3)CC2)cc1 (stereo unspecified)
    -4, 2512, -39, 11, 3.9, 10, 1

The last 6 entries of the section above come first, to join the parts.
Below each SMILES: BJeLR viability, Autofluor counter, PrP UTR inh, ugtP null kill, RN4220 kill, Mtb hypoxia inh, Mtb hypoxia inh growth
35	Oc1c(C=NNc2cccc3cccnc23)ccc2ccccc12
    x, x, x, 58, -1.0, -8, 11
36	COc1ccccc1CNC(=O)[C@@H]1CCCN1C(=O)C1CCN(S(=O)(=O)c2ccc(C)cc2)CC1
    -1, 9144, -12, 4, 3.3, -9, 3
37	O=C1CCCC2Cc3[nH]c4c(Cl)ccc(Cl)c4c3C3CCN1C23 (stereo unspecified)
    x, x, x, 6, 5.1, 4, 1
38	O=C(Cn1[nH]c(=O)c2ccccc2c1=O)NCC1COc2ccccc2O1 (stereo unspecified)
    x, 5363, x, -1, 1.5, 5, 6
39	c1ccc(COc2ccc(OCCOCCn3cncn3)cc2)cc1
    8, 4561, -53, 3, 5.9, 10, 5
40	COc1ccc(N2CCN(C(C)C(=O)Nc3nnc(C)s3)CC2)cc1 (stereo unspecified)
    -4, 2512, -39, 11, 3.9, 10, 1
41	COC(=O)c1ccc(NC(=O)c2cn(-c3cccc(C)n3)cn2)cc1
    x, 3754, 1, -1, 2.0, x, x
42	C=CCn1c(Cc2cccs2)nnc1SCC(=O)Nc1cc(OC)cc(OC)c1
    6, 3715, -11, 2, 5.7, 5, 11
43	CC1CCCCC12NC(=O)N(CC(=O)NCC(=O)Nc1ccc(F)c(F)c1F)C2=O (stereo unspecified)
    x, x, 1, 8, 3.7, 0, 5
44	Cc1ccc2c(c1)N(CC(=O)NCCCN1CCN(C)CC1)C(=O)CO2
    -6, 6007, -22, 1, -2.7, -4, 14
45	Cc1ccc(Oc2ncc(CN3CCOCC3)s2)cc1
    -1, 5694, -18, 11, 6.1, 10, 3
46	CCN1C(=O)/C(=C\c2nc3ccccc3c(=O)n2CC)c2ccccc21
    -7, 2038, 2, -1, 4.5, 18, 8
47	O=C(Cn1cc(C(=O)c2ccco2)c2ccccc21)Nc1ccccc1F
    -3, 4797, -5, 7, -2.7, -3, 7
48	CC(NC(=O)COC(=O)CNC(=O)c1ccc(-c2ccccc2)cc1)c1ccccc1 (stereo unspecified)
    -19, u, -8, 6, 4.0, 7, 6
49	Cc1nnc(Nc2ccc(Cl)cc2)s1
    5, 4685, -5, 7, 3.0, 2, 2
50	CC1(C)C2CCC1(CS(=O)(=O)NC(CC(=O)O)c1cccc(Br)c1)C(=O)C2 (stereo unspecified)
    -5, 3528, -27, 14, 1.2, 9, 4
51	Cc1cc(C)nc(/N=C(\N)Nc2ccc(C(C)C)cc2)n1
    16, 3529, -16, -3, 4.9, 14, 32
52	O=C(NN=C1CCC(c2ccccc2)CC1)c1cc2c(s1)CCCC2 (stereo unspecified)
    -9, 10313, -10, -2, -7.1, -7, 0
53	CN(C)/C=C(/C(=O)c1ccc(Cl)cc1Cl)S(=O)(=O)c1ccc(Cl)cc1
    4, 9207, -56, 1, 8.0, 15, 4
54	Cc1cc(NC(=O)CCC(=O)N(Cc2ccc(F)cc2)C(C(=O)NC2CCCC2)c2ccco2)no1 (stereo unspecified)
    -5, 3484, -21, 1, 4.6, 9, 5
55	CCN(CC)c1nc2ccccc2nc1-n1nc(C)cc1C
    9, 24280*, -21, -5, 11, 12, 5
56	NC(=S)c1cnn2c(-c3cccc(C(F)(F)F)c3)ccnc12
    1, 4121, -4, 11, 3.4, -4, 3
57	Cc1nc(-c2ccc(F)cc2)c(CC(=O)N(C)CC(=O)Nc2c(C)cccc2C)s1
    x, 4530, -11, 10, 1.6, 5, 1
58	Cc1ccccc1C(=O)NC(=S)N(C)C1CCCCC1
    1, 6224, -12, 5, 1.0, 6, 3
59	Cc1ccc(C(=O)CCC(=O)N2CCC(C(N)=O)CC2)cc1
    2, 3328, -14, -1, 2.2, -1, 9
60	Cc1ccccc1OCc1nnc(SCC(=O)Nc2c(C)n(C)n(-c3ccccc3)c2=O)n1-c1ccccc1
    x, 1926, -17, 10, -0.1, 0, 7
61	COc1ccccc1C(=O)NCc1ccccc1
    4, 3819, -5, -1, -1.5, 0, 0
62	Cc1ccccc1CN1CCN(C(C)C(=O)NNC(=O)c2ccc(F)cc2)CC1 (stereo unspecified)
    x, 8806, -16, 4, 5.5, -10, -4
63	Cc1cc(CSc2ccccc2)ccc1NC(=O)c1cccc([N+](=O)[O-])c1
    8, 3184, -27, -2, 6.8, 7, 12
64	CC(ON1CC1(C(F)(F)F)C(F)(F)F)(C(N)=O)C(N)=O (stereo unspecified)
    8, 2071, -5, 4, 4.0, 7, 1
65	CC1=CC(=C(C#N)C#N)C=C(C)N1CCN1CCN(C(=O)Nc2cccc(Cl)c2)CC1
    0, 2346, -14, 0, 0.0, -20, -1
66	COc1ccccc1-n1c(SCC(=O)Nc2cccc(C)c2)nc2c(c1=O)SCC2
    2, 5864, -18, -4, 3.5, 4, 1
67	O=C1C(Cl)=C(NCC2CCCO2)C(=O)N1Cc1ccccc1 (stereo unspecified)
    -11, 20284*, -8, 8, 2.1, 4, 11
68	Cc1ccc(S(=O)(=O)N2CCC(C(=O)N3CCCC(C(F)(F)F)C3)CC2)cc1C (stereo unspecified)
    -10, 4125, -5, 6, -0.5, 3, -2

An excerpt of these results, with each value named:
61	COc1ccccc1C(=O)NCc1ccccc1
  BJeLR viability: 4	Autofluor counter: 3819	PrP UTR inh: -5	ugtP null kill: -1	RN4220 kill: -1.5	Mtb hypoxia inh: 0	Mtb hypoxia inh growth: 0

63	Cc1cc(CSc2ccccc2)ccc1NC(=O)c1cccc([N+](=O)[O-])c1
  BJeLR viability: 8	Autofluor counter: 3184	PrP UTR inh: -27	ugtP null kill: -2	RN4220 kill: 6.8	Mtb hypoxia inh: 7	Mtb hypoxia inh growth: 12
